Source: PubChem
FGF22 binding: binders of human FGF22 protein, primary screen, FGF22 synaptogenesis inhibitor project, biophysical, thermal shift, single point | recombinant FGF22 thermal shift, SYPRO orange fluorescence; percent of sucrose octasulfate shift, DMSO zero | 340,000 compounds, 1.5% hits | AID 651658, 2012 | Fibroblast growth factor 22 (Homo sapiens), Q9HCT0 | calls only at 9.99 µM;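 active means melting point raised past a set limit in the mean and every replicate; three in four hits are not shown here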
Target sequence (Q9HCT0 whole entry, looked up): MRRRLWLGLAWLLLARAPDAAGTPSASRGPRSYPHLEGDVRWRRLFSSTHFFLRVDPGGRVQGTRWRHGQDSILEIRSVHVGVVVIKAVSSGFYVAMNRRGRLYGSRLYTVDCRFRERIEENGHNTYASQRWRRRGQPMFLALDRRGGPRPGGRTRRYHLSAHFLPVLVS
Ecoli rRNA inh: reduced GFP signal of wild-type E. coli, primary screen, bacterial rRNA inhibitor project, GFP/RFP fluorescence, OD600, single point; E. coli WT GFP vs humanized-ribosome RFP mutants, 24 h; active compounds read low; DMSO median 0, no signal -100; GFP signal change (wild-type ribosome), % (test concentration not listed); 350,000 compounds, 1.6% hits; AID 720706, 2013;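 active means significant combined selectivity score with lowered wild-type GFP, culture density cut under 30%, mutant RFP and density less affected; inactive means any of these conditions unmet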; further: one replicate is shown; some compounds called inactive have numbers as strong as hits
UCH37 DUB inh: inhibitors of human UCH37 deubiquitinase, primary screen, biochemical, Ub-AMC cleavage, fluorescence | Ubiquitin carboxyl-terminal hydrolase isozyme L5 (Homo sapiens), Q9Y5K5 | purified proteasome/UCH37 | 330,000 compounds, 0.33% hits | inhibition, % (concentration not given with the values) | AID 588478, 2011;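 active means mean of two replicates above 20%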;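 further: 0% = compound-free wells with enzyme and 100% = wells lacking proteasome; stock transfer was 100 nL into about 20 µL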
Target sequence (Q9Y5K5 whole entry, looked up): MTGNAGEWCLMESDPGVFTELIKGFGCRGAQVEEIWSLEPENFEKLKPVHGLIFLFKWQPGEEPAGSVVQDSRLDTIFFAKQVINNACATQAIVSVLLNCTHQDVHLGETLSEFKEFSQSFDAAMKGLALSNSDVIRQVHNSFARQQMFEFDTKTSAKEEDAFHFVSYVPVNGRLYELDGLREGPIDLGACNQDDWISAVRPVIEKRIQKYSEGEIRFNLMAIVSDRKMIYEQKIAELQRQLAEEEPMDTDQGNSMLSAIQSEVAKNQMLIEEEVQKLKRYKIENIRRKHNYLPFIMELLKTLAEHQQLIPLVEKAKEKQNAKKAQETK
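System: Proteasome-associated human UCH37 deubiquitinase; Input: 0.15 nM proteasome in added enzyme buffer; Also added: Ub-AMC substrate from 1 µM stock; Incubation: 30 min compound-proteasome preincubation then 25 min substrate reaction, room temperature; Detection: fluorescence, ex 355 nm, em 460 nm; Read-out: % inhibition of Ub-AMC cleavage fluorescence; Benchmarks: no-proteasome and no-compound wells.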
Beta cell apopt: inhibitors of cytokine-induced beta cell apoptosis, primary screen, luminescence; INS-1E cytokine-induced death, ATP luminescence, 48 h; percent of positive-control rescue, neutral wells zero; protection from apoptosis, % (test concentration not listed); 300,000 compounds, 0.8% hits;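 active means all replicates at 75% or more, or half of them and the mean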;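 further: 0% = cytokine-treated negative control wells and 100% = positive control rescue; higher means more ATP so stronger rescue from cytokine killing; wells of about 40 µL received 100 nL stock; the first replicate is given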
T cruzi inh: inhibitors of intracellular T. cruzi growth, primary screen, luminescence, NIH3T3 host cells | AID 1885, 2009 | T. cruzi beta-gal in NIH3T3, 90 h | 300,000 compounds, 1.4% hits | inhibition, % (test concentration not listed);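 active means mean inhibition across valid replicates above about 55%, limit read from the data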;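 further: signal also drops with host cell toxicity which is not excluded here; 0% = plate median of DMSO wells and 100% = zero luminescence signal; higher percent means less beta-gal luminescence so fewer parasites; stock transfer was 50 nL into about 50 µL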
Bfl-1 A1 inh: caspase 3/7 activation in MEF A1-2A-BIM cells, primary screen, A1 inhibitor project, cell-based, luminescence, HTS. Caspase-Glo 3/7 luminescence, 3 h; percent of clofoctol response, vehicle zero. caspase activation, % (concentration not given with the values). 330,000 compounds, 0.066% hits;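 active means over half of replicate activation scores above 10%, or exactly half above 10 with the replicate mean above 10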;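 further: wells of about 30 µL received 50 nL stock; many hits fall short of the cut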
E coli growth: E. coli growth inhibition, primary screen, OD600; Escherichia coli growth, 23 h; active compounds read low; OD600 absorbance (concentration not given with the values); 330,000 compounds, 0.21% hits;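 active means OD600 absorbance below the run mean of sample wells minus 3.6 SD, in any replicate, cut at about 0.56 in these data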;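 further: stock transfer was 300 nL into about 60 µL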
MLL AF4-AF9 inh: inhibitors of AF4 peptide binding to AF9, primary screen, biochemical, AlphaScreen, biotin-AF4 peptide, FLAG-AF9, single point; inhibition, % at 10 µM; Protein AF-9 (Homo sapiens), P42568; 350,000 compounds, 0.47% hits; AID 651704, 2012;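 active means every replicate reaching a set inhibition limit, whatever the replicate mean, cut at about 25% in these data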;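 further: 0% = plate neutral control median and 100% = total signal loss; the record names both 10 and 1 µM as test concentration; the first replicate is given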
Target sequence (P42568 whole entry, looked up): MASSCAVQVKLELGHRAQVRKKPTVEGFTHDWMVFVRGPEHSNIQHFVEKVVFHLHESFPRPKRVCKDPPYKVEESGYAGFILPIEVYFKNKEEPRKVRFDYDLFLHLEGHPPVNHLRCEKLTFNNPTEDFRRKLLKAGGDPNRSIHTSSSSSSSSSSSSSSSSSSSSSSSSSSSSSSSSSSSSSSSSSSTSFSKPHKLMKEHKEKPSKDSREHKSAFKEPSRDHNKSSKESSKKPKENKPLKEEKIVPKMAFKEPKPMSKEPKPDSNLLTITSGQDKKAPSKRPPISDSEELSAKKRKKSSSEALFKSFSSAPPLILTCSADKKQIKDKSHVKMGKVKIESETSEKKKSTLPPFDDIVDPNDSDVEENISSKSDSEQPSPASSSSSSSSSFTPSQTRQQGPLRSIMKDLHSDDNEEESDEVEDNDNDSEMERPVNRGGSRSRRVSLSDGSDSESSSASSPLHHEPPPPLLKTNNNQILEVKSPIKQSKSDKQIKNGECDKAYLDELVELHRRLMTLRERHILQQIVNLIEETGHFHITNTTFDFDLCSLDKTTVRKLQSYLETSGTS
Ecoli rRNA inh OD600: second read-out of Ecoli rRNA inh, no call of its own (marks repeat the call); OD600 change, %; measured here: OD600 growth;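 optical density of the mix in the first replicate; 0 = DMSO median and -100 = no signal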
Ecoli rRNA inh RFP: second read-out of Ecoli rRNA inh, no call of its own (marks repeat the call); RFP signal change, %; measured here: RFP humanized mutant strains;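 first replicate; 0 = DMSO median and -100 = no signal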
The depositor's hits bear a star; i = inactive; · = no result given. These rows are one share of the data; count on the stated rates, not on these rows.

Value order: UCH37 DUB inh | Ecoli rRNA inh RFP | Ecoli rRNA inh | FGF22 binding | Ecoli rRNA inh OD600 | Beta cell apopt | MLL AF4-AF9 inh | Bfl-1 A1 inh | T cruzi inh | E coli growth
> COc1ccc(Cc2c(Cl)ncnc2Cl)cc1
 : 3.2 | -7.1 | -4 | i | 2 | -6 | -0.1 | 1.1 | -2 | 0.6
> O=C(Nc1cccc(S(=O)(=O)C(F)F)c1)c1ccc(Cl)c(S(=O)(=O)N2CCOCC2)c1
 : 5.4 | · | · | · | · | · | · | -0.9 | 2 | 0.76
> CCc1c(C)nc2cc(-c3cc(OC)cc(OC)c3)nn2c1N1CCN(CCN2CCOCC2)CC1
 : -13 | · | · | · | · | 4 | · | 0.2 | 12 | 0.76
> CCCCN(Cc1cc2cc(OC)ccc2[nH]c1=O)C(=O)COc1ccccc1
 : -65 | · | · | · | · | -1 | · | 0.4 | 11 | 0.7
> CC(=O)c1ccc(NC(=O)CSc2nnc(NC(=O)c3ccco3)s2)cc1
 : -1.3 | · | · | · | · | 5 | · | -5.9 | -9 | 0.71
> CCOC(=O)c1nnc(-c2ccccc2)nc1NCc1ccccc1
 : 4.0 | · | · | · | · | -1 | · | 0.5 | -14 | 0.72
> Cc1ccc(C2=NN(C(=O)CCl)C(c3ccco3)C2)o1 (centres undefined)
 : 4.6 | 1.6 | 2 | i | 12 | · | 1.8 | · | 47 | 0.66
> O=C(CN1CCN(S(=O)(=O)c2cccc(F)c2)CC1)Nc1ccnn1C1CCCC1
 : 3.6 | -3.1 | 3 | i | 2 | -5 | -1.2 | 0.3 | · | 0.71
> Cc1cc(C)n(CCC(=O)Nc2ccc(-c3ccno3)cc2)n1
 : -4.6 | 0.0 | -5 | i | -2 | -7 | -0.6 | 0.9 | 4 | 0.69
> O=C1NC(=S)S/C1=C/c1ccc(OC(=O)c2ccco2)cc1
 : · | -2.6 | 3 | i | 11 | 6 | -0.6 | 1.0 | -11 | ·
> CC(CN1CCCC1)C(=O)NN (centres undefined)
 : 2.2 | -7.3 | 9 | i | 9 | -1 | -0.4 | 0.5 | 6 | 0.65
> Cc1ccc(CC(=O)Nc2ccccc2N2CCOCC2)cc1C
 : -4.6 | · | · | · | · | -3 | · | 0.0 | · | 0.75
> Cc1ccc(NC(=O)NCCN2CCCCC2)cc1Cl
 : 3.5 | -3.1 | -5 | i | 3 | 0 | 26* | 0.4 | 4 | 0.7
> COc1ccc(NC(=O)COc2ccc(C(=O)c3ccc(F)cc3)cc2)cc1S(N)(=O)=O
 : 4.5 | -1.5 | 0 | i | -5 | 0 | 0.7 | 0.7 | -9 | 0.63
> Cc1cccc(C(=O)OCC(=O)N2CC(C)CC(C)C2)c1C (centres undefined)
 : 3.3 | -2.6 | -20 | i | -30 | -3 | 0.0 | -1.2 | · | 0.65
> CCN(CC)CCn1c2c(c(SCC(=O)Nc3nc4ccc(C)cc4s3)nc1=O)CCC2
 : 0.2 | -2.0 | 2 | · | 7 | · | -4.7 | 0.6 | -4 | 0.7
> COc1ccc(-c2oc(NC(=O)CSc3ncn[nH]3)c(C#N)c2-c2ccc(OC)cc2)cc1
 : 4.7 | 27 | -30 | i | -28 | -8 | -6.3 | 0.3 | 21 | 0.74
> COc1cc(CNC(=O)c2ccc3oc(C(C)C)nc3c2)cc(OC)c1
 : 0.4 | 16 | 4 | i | -22 | -3 | -3.1 | -0.6 | 18 | 0.61
> COCCN(C(=O)c1csnn1)C(C(=O)NC1CCCCC1)c1ccccc1 (centres undefined)
 : -0.6 | 1.1 | 6 | i | 14 | -1 | -2.3 | 0.0 | -8 | 0.59
> COc1ccc(C(CNC(=O)c2ccco2)N2CCOCC2)cc1 (centres undefined)
 : -0.5 | 1.6 | 2 | i | 8 | -2 | -4.0 | 0.7 | · | 0.66
> COC(=O)c1cc(OC)c(OC)cc1NC(=O)CSCc1c(C)noc1C
 : -6.5 | -5.3 | -3 | i | -7 | 3 | -6.5 | -0.2 | · | 0.66
> COc1ccc([N+](=O)[O-])cc1NC(=O)COC(=O)Cn1cnc2ccccc2c1=O
 : 6.3 | -1.3 | -6 | i | 8 | -2 | 1.2 | 1.1 | · | 0.68
> Cc1ccc(C(=O)Nc2ccccc2)cc1S(=O)(=O)Nc1ccc(Cl)cn1
 : -2.7 | -6.0 | 12 | i | 7 | 5 | -1.3 | -0.7 | 1 | 0.67
> Cc1ccc(NC(=O)c2ccc([N+](=O)[O-])cc2)cc1S(=O)(=O)N(C)C
 : 5.4 | 2.7 | 16 | i | 17 | 2 | -2.1 | -1.7 | 41 | 0.71
> Cc1ccc(-n2ncc(C(=O)N3CCN(C(=O)c4ccco4)CC3)c2-n2cccc2)cc1
 : -1.2 | 0.3 | 0 | i | -6 | 4 | -0.2 | 0.5 | -11 | 0.67
> O=C(c1ccccc1)c1cnc2ccc(Cl)cc2c1N1CCOCC1
 : 2.3 | -0.5 | 12 | i | 9 | -7 | -0.8 | 1.8 | -22 | 0.76
> COC(C)(C)[C@@H](O)COc1c2ccoc2cc2oc(=O)ccc12
 : 1.7 | -2.5 | 0 | i | 2 | 6 | -4.6 | -0.8 | · | 0.79
> Cc1ccc(NC(=O)c2cc(S(=O)(=O)NCCC3=CCCCC3)ccc2F)cc1
 : 5.2 | 1.4 | -38 | i | -61 | 105* | -2.1 | 0.0 | -9 | 0.68
> CCN1CCN(C(=O)C2CCN(S(=O)(=O)c3cc(Cl)ccc3Cl)CC2)CC1
 : 2.6 | -2.3 | 1 | i | 4 | -1 | 2.1 | -0.3 | 0 | 0.69
> CCc1nnc(NC(=O)CCN2C(=O)/C(=C/c3cc(OC)c(OC)c(OC)c3)SC2=S)s1
 : 1.7 | 0.1 | 4 | i | 0 | 3 | 0.7 | 2.1 | 1 | 0.7
> Cc1ccccc1-c1nc(CS(=O)CC(=O)NC(C)CCc2ccccc2)c(C)o1 (centres undefined)
 : 2.0 | · | · | · | · | 3 | · | 0.1 | 15 | 0.73
> O=C(NCc1ccccn1)c1cccc(S(=O)(=O)N2CCc3ccccc32)c1
 : 3.4 | -3.5 | 9 | i | -35 | 5 | 1.1 | -0.5 | · | 0.72
> Cc1nc(NS(=O)(=O)c2ccccc2)sc1NC(=O)OC(C)C
 : 6.4 | · | · | · | · | 0 | · | 0.1 | -2 | 0.69
> O=C(C1=C(O)C(=O)N(c2nccs2)C1c1ccccc1)c1cc2ccccc2o1 (centres undefined)
 : 5.3 | 67 | 83 | i | -35 | -4 | 1.3 | -0.9 | 6 | 0.68
> Cc1nn(C)c(C)c1S(=O)(=O)N(CC(=O)NC1CCCCCC1)c1ccc(C(C)C)cc1
 : 6.9 | 2.3 | 9 | i | 13 | 2 | -1.1 | -0.4 | -17 | 0.74
> Cc1cnc(C(=O)OCC(=O)Nc2ccc(OCc3ccccc3)cc2)cn1
 : 5.7 | 0.0 | 9 | i | 12 | 14 | -2.3 | -10.0 | · | 0.69
> COc1cccc(Cn2cccc(NC(=O)NCc3ccccc3)c2=O)c1
 : -14 | -2.5 | -2 | i | -3 | 2 | 2.0 | 0.2 | -11 | 0.73
> CCn1ncc(S(=O)(=O)Nc2cc(Cl)ccc2C)c1C
 : 1.3 | -0.3 | 2 | i | -1 | 3 | -0.9 | 1.3 | -7 | 0.64
> Cc1ccnc(N2CCC(C(=O)Nc3cccc(C(F)(F)F)c3)CC2)n1
 : -2.2 | · | · | · | · | -3 | · | -1.0 | 5 | 0.65
> O=C(OCC(=O)N1CCN(C(=O)c2ccco2)CC1)c1cc(-c2ccccc2)nc2ccccc12
 : -4.5 | · | · | · | · | -2 | · | -0.8 | -9 | 0.71
> COc1ccc(NC(=S)Nc2ccccc2)cn1
 : 5.9 | · | · | i | · | · | 0.1 | -3.4 | -7 | 0.72
> CCc1cccc(NC(=O)C2CCCN(S(=O)(=O)c3cccs3)C2)c1 (centres undefined)
 : 0.2 | -1.5 | -4 | i | -26 | -5 | 0.3 | 0.5 | 3 | 0.68
> c1ccc(Cc2nn3c(Cn4nnc5ccccc54)nnc3s2)cc1
 : 4.4 | · | · | · | · | -5 | · | 21* | -1 | 0.68
> COc1cc(CN2CCN(CCCc3ccccc3)C(CCO)C2)cc(OC)c1O (centres undefined)
 : 2.6 | 2.5 | 9 | i | 9 | · | 1.3 | 0.0 | -9 | 0.67
> CS(=O)(=O)c1ccc(C(=O)NNC(=O)c2cccs2)cc1
 : -1.2 | -2.1 | 10 | i | 13 | -2 | -0.6 | -1.1 | · | 0.65
> COc1ccccc1C(=O)NNC1CC(=O)N(c2ccc3c(c2)OCCO3)C1=O (centres undefined)
 : 3.4 | 1.7 | 15 | i | 2 | -5 | -2.8 | -0.8 | 0 | 0.65
> O=C(CSc1nnc(-c2ccc(O)cc2)o1)N1CCOCC1
 : 3.5 | · | · | · | · | -3 | · | -1.4 | -4 | 0.73
> CNC(=O)c1cc(C(=O)c2ccccc2Br)c[nH]1
 : 2.2 | -3.3 | 7 | i | 6 | -4 | 0.2 | -0.2 | 13 | 0.7
> COc1ccccc1S(=O)(=O)Cc1ccc(C(=O)NCc2ccc3c(c2)OCO3)o1
 : 4.4 | -1.2 | 4 | i | 2 | 0 | 2.1 | 0.5 | 4 | 0.78
> COC(=O)c1nnn(CC(=O)Nc2cccc(OC)c2)c1C(=O)OC
 : -2.9 | · | · | · | · | 1 | · | -0.1 | -6 | 0.7
> Cc1cc(C(F)(F)F)n2ncc(-c3ccc(F)cc3)c2n1
 : 4.6 | · | · | · | · | · | · | 0.7 | 13 | 0.71
> CCOC(=O)N1CCC(c2cc(=O)n3[nH]cc(C(=O)OC)c3n2)CC1
 : 3.8 | -3.3 | 8 | i | 9 | -1 | 5.4 | -0.8 | 9 | 0.74
> CC(=O)N1CCN(C(=O)C2(NC(=O)Nc3ccc(C)cc3)CCCCC2)CC1
 : 1.8 | -1.3 | 8 | i | 11 | -5 | -6.4 | -0.2 | 2 | 0.68

Laid out differently: entries from further up
| Molecule | UCH37 DUB inh | Ecoli rRNA inh RFP | Ecoli rRNA inh | FGF22 binding | Ecoli rRNA inh OD600 | Beta cell apopt | MLL AF4-AF9 inh | Bfl-1 A1 inh | T cruzi inh | E coli growth |
| --- | --- | --- | --- | --- | --- | --- | --- | --- | --- | --- |
| CCOC(=O)N1CCC(c2cc(=O)n3[nH]cc(C(=O)OC)c3n2)CC1 | 3.8 | -3.3 | 8 | i | 9 | -1 | 5.4 | -0.8 | 9 | 0.74 |
| CNC(=O)c1cc(C(=O)c2ccccc2Br)c[nH]1 | 2.2 | -3.3 | 7 | i | 6 | -4 | 0.2 | -0.2 | 13 | 0.7 |
